SARS PLP yeast: blocks SARS-CoV papain-like protease in a yeast assay; S. cerevisiae expressing SARS-CoV PLpro, growth rescue; control for the full effect not named in the record; Potency, µM (highest dose often 32.9 µM), without a hit: at the highest dose activity, positive = growth rescue; 330,000 tested, 0.19% active; active means well fitted rising curve with a large enough effect; inconclusive means small, poorly fitted or top-dose-only effect; inactive means no such curve, though single readings can be large or run the other way; note: 0% is about no effect; nearly all actives have a fitted effect of over 55% in size; growth read by luminescence after 48 h
2A StopGo: FMDV 2A StopGo reporter, luciferase signal. AID 1159524. Potency, µM (top dose mostly 57.9 µM), inactives show at the top dose signal change, negative = less light. human cells with a luciferase reporter of 2A StopGo recoding; control for the full effect not named in the record. 410,000 tested, 1.2% active; active = well fitted falling curve with a large enough effect; inconclusive = small, poorly fitted or top-dose-only effect; inactive = no such curve, though single readings can be large or run the other way; tested in HEK293T cells; note: % is set by controls: 0 for no effect and ±100 for the full control effect; nearly all actives have a fitted effect of over 45% in size; luciferase light after 4 h
Cruzain inh Det: blocks cruzain activity in presence of Triton detergent; P25779; purified cruzain, Z-FR-AMC fluorescence, 0.01% Triton; Potency, µM, for inactives: max response, negative = inhibition, most hits filed as inhibitors; 200,000 tested, 0.43% active; AID 1478;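 note: plate controls were neutral wells for no effect and buffer without enzyme for full effect; nearly all actives have a fitted effect of over 40% in size; top concentration of the series not given in the record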
Target sequence (P25779 123-467 limits assumed): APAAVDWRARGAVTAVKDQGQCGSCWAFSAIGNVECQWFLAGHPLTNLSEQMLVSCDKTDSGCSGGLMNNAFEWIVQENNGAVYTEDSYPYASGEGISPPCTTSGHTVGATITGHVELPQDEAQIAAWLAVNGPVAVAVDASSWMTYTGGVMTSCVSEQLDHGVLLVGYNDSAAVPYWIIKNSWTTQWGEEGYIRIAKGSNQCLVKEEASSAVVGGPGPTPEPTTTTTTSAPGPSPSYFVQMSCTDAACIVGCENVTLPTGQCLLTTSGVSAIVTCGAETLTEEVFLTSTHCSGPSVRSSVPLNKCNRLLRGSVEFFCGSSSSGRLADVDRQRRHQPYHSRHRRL
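Purified cruzain (1.5 nM final) was preincubated with compounds for 15 min at room temperature in 100 mM sodium acetate pH 5.5, 5 mM DTT, 0.01% Triton X-100. Reaction started with 2 uM Z-FR-AMC; AMC fluorescence change over 60 s gave activity.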
Cruzain noTriton: blocks cruzain activity in detergent-free assay | P25779 | purified cruzain, Z-FR-AMC fluorescence, no detergent | Potency, µM, for the others: max response, negative = inhibition, usual class: inhibitors | 200,000 tested, 2.3% active;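 note: plate controls were enzyme without inhibitor for no effect and buffer without enzyme for full effect; nearly all actives have a fitted effect of over 40% in size; top concentration of the series not given in the record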
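Purified cruzain at 1.5 nM, pre-incubated 15 min with compound at room temperature in 100 mM sodium acetate pH 5.5, 5 mM DTT, 0.00005% Triton X-100. Reaction started with 2 uM Z-FR-AMC; AMC fluorescence increase over 60 s gives rate.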
RE007 growth inh: less growth of the S. pombe RE007 Vpr strain; S. pombe RE007 Vpr strain, BacTiter-Glo ATP luminescence, 24 h; control for the full effect not named in the record; Potency, µM (titrated, usually from 92.2 µM), inactives show at the highest dose activity change, negative = less growth; 360,000 tested, 0.21% active; active = well fitted falling curve with a large enough effect; inconclusive = small, poorly fitted or top-dose-only effect; inactive = no such curve, though single readings can be large or run the other way;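 note: % is set by controls: 0 for no effect and ±100 for the full control effect; nearly all actives have a fitted effect of over 50% in size; the assay follows cell death caused by Vpr and the record does not say whether a fall means rescue or toxicity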
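Fission yeast RE007 carrying one integrated HIV-1 vpr copy, seeded at OD 0.01 in PMG+AL medium with 23 nL pinned compound. Grown 24 h at 30 degrees; viability read by BacTiter-Glo luminescence after 5 min.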
LASV entry inh: Lassa virus entry inhibition; Lassa virus pseudotype entry inhibition, cell reporter; control for the full effect not named in the record; AID 540256; Potency, µM (top dose mostly 37.9 µM), for the others: at the top dose activity change, negative = inhibition, usual class: inhibitors; 300,000 tested, 1.2% active; active means well fitted inhibition curve with a large enough effect; inconclusive means small, poorly fitted or top-dose-only effect, or effect the other way; inactive means flat fitted curve, though single readings scatter; tested in HEK293 cells; note: % is set by controls: 0 for no effect and ±100 for the full control effect; nearly all actives have a fitted effect of over 50% in size; luciferase read-out
MARV entry inh: Marburg virus entry inhibition | Marburg virus pseudotyped entry inhibition, cell reporter; control for the full effect not named in the record; about a third of the inactives were read at about 46 µM | Potency, µM (highest dose often 37.8 µM), inactives show at the highest dose activity change, negative = inhibition, hits mostly inhibitors | 300,000 tested, 1.8% active | AID 540276; active = well fitted inhibition curve with a large enough effect; inconclusive = small, poorly fitted or top-dose-only effect, or effect the other way; inactive = flat fitted curve, though single readings scatter; tested in HEK293 cells; about a fifth of its hits are not listed in these tables; note: % is set by controls: 0 for no effect and ±100 for the full control effect; luciferase read-out
NS1 function inh: influenza NS1 inhibition; S. cerevisiae slowed by influenza A NS1, growth recovery by OD600; Potency, µM (series often up to 46.1 µM), without a hit: top-dose activity, positive = more growth; 270,000 tested, 0.4% active; AID 2326; active means well fitted rising curve with a large enough effect; inconclusive means small, poorly fitted or top-dose-only effect; inactive means no such curve, though single readings can be large or run the other way; note: nearly all actives have a fitted effect of over 50% in size
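S. cerevisiae expressing influenza A NS1, grown in glucose, washed, then diluted 1:100 into pH 6.0 -URA galactose medium with 23 nl compound. Growth recovery read as OD600; NS1-free strain serves as control.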
Starred values were filed as active, the others as inactive; u = inconclusive; x = not tested or not shown; & = joins results of further samples; [ ] = dose if it differs, or a comment. Unless noted, calls come from the whole dose curve; as a rule, active = well fitted curve in the direction sought with a large enough effect; inconclusive = small, poorly fitted or top-dose-only effect, or another doubt; inactive = no such curve, though single readings can be large; an effect the other way counts as inactive or inconclusive. Potency is the fitted concentration of half-maximal effect.

molecule	RE007 growth inh	SARS PLP yeast	NS1 function inh	2A StopGo	MARV entry inh	Cruzain noTriton	Cruzain inh Det	LASV entry inh
CC(C)(C)OC(=O)NCCCCCc1nnc(SCC(=O)Nc2cccc(Cl)c2)o1	16%	-5%	-70%	-29%	-9%	u	-4.0%	-2%
Cc1ccc(SCc2cc(=O)[nH]c(/N=C(\N)Nc3cccc4ccccc34)n2)cc1	2%	-11%	14%	u	-18%	32µM*	-0.5%	u
Brc1ccc(C2=Nc3cccc4cccc(c34)N2)o1	-15%	-3%	-17%	-23%	7%	u	-7.3%	-11%
Cc1ccc(NC(=O)Cn2ncn3c(cc4ccccc43)c2=O)c(C)c1	1%	u	19%	-9%&1%	0%&0%[46.1 µM]	-10%	-5.1%	x
Cc1cc(C[n+]2ncsc2N)c2ncccc2c1	3%	-2%	-1%	-17%	u	x	x	22%[46.1 µM]
CCOc1ccc(-c2c(=O)n(O)c3ccccc3[n+]2[O-])cc1	-18%	1%	-6%	36%[activator]	x	x	x	x
N#Cc1ccccc1OCC(=O)OCCCOC(=O)COc1ccccc1C#N	-22%	-2%	4%	0%	28%	x	x	4%
COc1ccc(OC)c(Nc2nc(N)c([N+](=O)[O-])c(NC3CCCCC3)n2)c1	1%	-2%	6%	-16%	x	x	x	x
CCOC(=O)c1cc2c(=O)n3ccccc3nc2n(CCCOC)c1=NC(=O)C(C)(C)Oc1ccc(Cl)cc1	x	x	x	0%	12%[46.1 µM]	4%	0.3%	-2%[46.1 µM]
CN(c1ccc(C(=O)N2CCN(Cc3ccccc3)CC2)cc1)S(=O)(=O)c1ccc(Cl)cc1	-3%	0%	-51%	-23%	u	x	x	-11%[46.1 µM]
COc1cc(C2C3=C(CCCC3=O)Nc3[nH]n(-c4ccccc4)c(=O)c32)cc(OC)c1OC (configuration not stated)	-10%	1%	x	4%	-1%[46.1 µM]	x	x	18%[46.1 µM]
CCOC(=O)c1ccc(NC(=O)CSc2nc3c(cc2C#N)N2CCC3CC2)cc1	x	x	x	13µM*	u	-8%	-2.1%	-15%[46.1 µM]
CCNc1ccc(C(=O)OCC)cc1NC(=O)c1cccc(S(=O)(=O)N(C)c2ccccc2)c1	6%	7%	u	u	u	-10%	-5.5%	u
C#CCOc1ccc(/C=C2/C(=O)N(c3cccc(C(=O)O)c3)N=C2C)cc1OC	3%	5%	11µM*	3%	5%[46.1 µM]	x	x	16%[46.1 µM]
O=c1[nH]c2ccc(Cl)cc2c(-c2ccccc2)c1N1CCOCC1	3%	1%	-15%	-28%	x	u	-4.0%	x
C=CCn1c(SCc2cc(=O)n3ccsc3n2)nc2scc(C3CC3)c2c1=O	13%	-4%	-11%	-20%	-7%	6%	-4.6%	-5%
COc1cccc(C(=O)NNc2nc(C)cc(C)n2)c1	x	21%	12%	-3%	1%	8%	-0.4%	-30%
CCOC(=O)c1ccc(NC(=O)CCn2ccc(C)n2)cc1	x	x	x	-8%	x	-10%	-0.7%	4%[46.1 µM]
Cn1c(=O)c(=O)n(C)c2cc(N3CCOCC3)c(NS(=O)(=O)c3ccc(Br)cc3)cc21	1%	4%	4%	4%	-7%[46.1 µM]	x	x	-16%[46.1 µM]
CCCCCOC(=O)c1ccc(Nc2nc(C(=O)OCC)nc3ccccc23)cc1	x	x	x	-7%	-5%[46.1 µM]	-4%	-2.5%	23%[46.1 µM]
Cc1ccc2cc(CN(C(=O)C3CCCO3)C3CCCCC3)c(=O)[nH]c2c1 (configuration not stated)	2%	-6%	-6%	-15%	8%[46.1 µM]	-1%	-0.1%	12%
Cc1nn(CC(=O)N(C)C)c(=O)c2ccccc12	-11%	6%	-9%	0%	2%	-11%	4.2%	2%
C=CCNC(=O)COc1ccc(N(C)S(=O)(=O)c2ccc(NC(C)=O)cc2)cc1	-5%	2%	13%	-9%	-11%	x	x	-8%
COC(=O)CSc1nc2sc3c(c2c(=O)n1-c1ccccc1)C(C)CCC3 (configuration not stated)	x	x	x	0%	-25%[46.1 µM]	-14%	-1.0%	17%[46.1 µM]
COc1ccc(Cl)cc1C(=O)NNC(=O)C1COc2ccccc2O1 (configuration not stated)	15%	1%	x	-11%	u	x	x	0%
O=C(CCC(=O)N1CCN(S(=O)(=O)c2ccc(Cl)cc2)CC1)Nc1cccc(Br)c1	10%	19%	15%	-10%	2%	u	-7.2%	7%
Cc1ccc2c(CC(=O)O)coc2c1C	-2%	2%	-183%	-5%	-3%	1%	3.6%	5%
COc1ccc(C(=O)Nc2cc(C)nn2-c2nc3ccccc3[nH]2)c(OC)c1	-10%	1%	-5%	-4%	x	x	x	x
COc1ccc2c(c1)CC(C(=O)Nc1ccc(Br)c(C)c1)CO2 (configuration not stated)	x	x	x	-24%	x	-12%	-1.3%	12%[46.1 µM]
CC12C(=O)N(c3ccccc3)C(=O)C1C(c1ccccc1)N1CCCN12 (configuration not stated)	7%	1%	2%	-17%	-20%	x	x	u
Cc1ccc2nc(SCC(=O)Nc3ccc(Cl)cc3)nc(=O)n2c1	-13%	2%	x	-6%	10%	x	x	18%
O=C(NCCN1CCOCC1)/C(=C\c1ccc(F)cc1)NC(=O)c1ccccc1	6%	-1%	-5%	-1%	-1%[46.1 µM]	x	x	-8%[46.1 µM]
Cc1ccc(C)n1/N=C1/NC(=O)CS1	5%	0%	1%	2%	u	u	-14%	25%
O=C(O)CSc1nc(SCc2ccccc2Cl)nc2c1CCCC2	3%	-14%	-14%	-4%	-18%	12%	-3.0%	11%
CCOC(=O)c1ccccc1NC(=O)COC(=O)CSC(C)C(=O)Nc1cc(C)on1 (configuration not stated)	-18%	0%	-10%	-2%	-10%	x	x	16%
O=C(O)CCCCCN1C(=O)C2CCCCC2C1=O (configuration not stated)	3%	1%	-6%	4µM*	5%	-3%	-0.5%	u
CCC(C(=O)Nc1ccc(C(C)=O)cc1)n1c(C)c2cnn(-c3ccccc3)c(=O)c2c1C (configuration not stated)	x	x	x	-20%	-8%[46.1 µM]	u	-7.7%	-1%[46.1 µM]
C[C@H](NC(=O)c1nc[nH]c1C(=O)N[C@@H](C)C(=O)OC(C)(C)C)C(=O)OC(C)(C)C	4%	0%	u	-20%	x	x	x	x
COCCOC(=O)c1[nH]c2c(c1C)C(=O)CC(c1cc(OC)c(OC)c(OC)c1)C2 (configuration not stated)	0%	1%	-6%	u	10µM*	x	x	u
CCn1c(=O)c(C(=O)NC(C)c2ccccc2)c(O)c2ccccc21 (configuration not stated)	7%	u	1%	-6%	x	x	x	x
COc1cccc(CNC(=O)CSc2ncc(S(=O)(=O)c3ccc(C)c(Cl)c3)c(=O)[nH]2)c1	x	x	x	-13%	x	u	-6.3%	u
CC(NCc1ccc(N(C)C)cc1)C1CC2CCC1C2 (configuration not stated)	-22%	-4%	-3%	-8%	u	15%	0.0%	-21%
CN(CC(=O)N1CCN(c2ccccn2)CC1)S(=O)(=O)c1ccc(Br)cc1	-6%	13%	-14%	-30%	3%	1%	2.7%	2%
O=C(c1cc(-c2ccncc2)nc2ccccc12)N1CCN(c2ncccn2)CC1	-4%	0%	x	-22%	1.1µM*	x	x	-14%
COc1cc(CN(C(=O)COc2ccc(Cl)c(C)c2)c2ccccn2)cc(OC)c1OC	x	x	x	-23%	u	u	-7.8%	-5%[46.1 µM]
O=C(NCCCc1ccncc1)C1CCC(=O)N(CCc2cccc(F)c2)C1 (configuration not stated)	-10%	-3%	-10%	-7%	u	x	x	0%[46.1 µM]
Cc1ccc(S(=O)(=O)NC2CCCC2)cc1C	6%	-6%	9%	58%[activator]	-3%	-2%	5.5%	18%
CCN1CCSc2ccc(C(=O)NCc3ccc(F)cc3)cc21	x	x	x	-4%	-13%[46.1 µM]	-9%	-1.0%	-14%[46.1 µM]
CCOc1ccccc1NC(=O)COn1nnc2ccccc21	-14%	-11%	-50%	8%	u	-5%	-3.5%	1%
Cc1ccc(N2C(=O)N(CC(=O)NCc3ccccc3Cl)C(=O)C2C)cc1 (configuration not stated)	9%	0%	x	-20%	u	x	x	u

Following part.
molecule	RE007 growth inh	SARS PLP yeast	NS1 function inh	2A StopGo	MARV entry inh	Cruzain noTriton	Cruzain inh Det	LASV entry inh
CC(C)(C)NC(=O)c1cc(-c2ccc3c(c2)OCO3)nc2ccccc12	-9%	-6%	3%	-8%	-4%	x	x	10%
CCN(CC)CCOC(=O)c1ccc(NC(=O)c2cn(-c3ccccc3)nc2-c2cccs2)cc1	-16%	-1%	x	0%	u	x	x	u
Cc1nn(-c2ccc(N3CCCCC3)nn2)c(C)c1CCC(=O)NCc1ccccc1	x	x	x	9%	x	-3%	-3.6%	-3%[46.1 µM]
Cc1ccccc1N1CCN(C(=S)c2ccccc2)CC1	5%	8%	0%	u	10%	-15%	-2.4%	-16%
Clc1ccc(-n2cnc3c(Cl)ncnc32)cc1Cl	-19%	x	x	-27%	-15%	x	x	1%
Cc1ccc(S(=O)(=O)NC(=O)Nc2ccc(Cl)cn2)cc1	-8%	8%	3%	x	-1%	-8%	2.9%	0%
Oc1ccc(-c2nccc(-c3ccc(F)cc3)n2)cc1	1%	-8%	-5%	21%	-12%[46.1 µM]	x	x	-8%[46.1 µM]
O=C(CSc1nc(=O)n(Cc2ccco2)c2c1CCC2)Nc1ccccc1C(F)(F)F	x	x	x	12%	x	-7%	-2.8%	-22%[46.1 µM]
Nc1nnnn1/N=C/c1ccccc1C(F)(F)F	1%	-11%	-8%	4%	-1%	2%	-7.7%	-1%
COc1ccc(/C=C2\Oc3cc(OCC(=O)N4CCC[C@H]4C(=O)O)ccc3C2=O)cc1OC	2%	-7%	u	-19%	x	x	x	x
COc1cc(-c2nnc(NC(=O)c3ccco3)o2)cc(OC)c1OC	2%	-5%	x	12%	-12%	x	x	-3%
O=c1c2oc3ccccc3c2ncn1Cc1ccccc1Cl	-1%	x	-15%	0%	22%	-12%	-6.7%	1%
